Screens as filed in PubChem.
VACV mCherry inh = qHTS for Stage-Specific Inhibitors of Vaccinia Orthopoxvirus: mCherry Reporter Primary qHTS | Vaccinia virus mCherry reporter infection, fluorescence; about a quarter of the inactives have no number | Potency, µM (highest dose often 36.5 µM), without a hit: at the top dose activity change, negative = inhibition, most hits filed as inhibitors | actives 0.63% (n = 310,000) | AID 720579, 2013; active = well fitted inhibition curve with a large enough effect; inconclusive = small, poorly fitted or top-dose-only effect; inactive = no such curve, though single readings can be large or run the other way; tested in A549 cells; further: nearly all actives have a fitted effect of over 35% in size; inactives centre near -10
Vaccinia Venus = qHTS for Stage-Specific Inhibitors of Vaccinia Orthopoxvirus: Venus Reporter Primary qHTS; Vaccinia virus Venus reporter expression, fluorescence; Potency, µM (top dose mostly 36.5 µM), for inactives: at the top dose activity change, negative = inhibition, most hits filed as inhibitors; actives 0.46% (n = 330,000); active means well fitted inhibition curve with a large enough effect; inconclusive means small, poorly fitted or top-dose-only effect; inactive means no such curve, though single readings can be large or run the other way; tested in A549 cells; further: nearly all actives have a fitted effect of over 30% in size; inactives centre near -10
Starred values were filed as active, the others as inactive; i = inactive; u = inconclusive; x = not tested or not shown; & = joins results of further samples; [ ] = remark or other dose. On the % scale 0 is the no-effect control and ±100 the full control effect; potency means the concentration at half of the fitted maximal effect.

SMILES	VACV mCherry inh	Vaccinia Venus
Cc1cccc(CSc2ncc(CO)n2C)c1	x	-12%
CCCCNC(=O)CSc1nc2n[nH]c(C)c2c(=N)n1-c1cccc(Cl)c1C	u	u
CCOC(=O)CC/C(C)=N\N=C1\SC(CC(=O)O)C(=O)N1c1ccccc1 (configuration not stated)	i	7%
Cc1cc(NC(=O)Cn2c(C)nc3ccccc3c2=O)ccc1Br	x	-2%
C#CCSc1[nH]c(=O)cc(C)c1C#N	-13%	-9%
Cc1ccc(-c2noc(-c3cccnc3NCc3ccco3)n2)cc1	-13%	0%
O=C1C2C(c3ccccc3)C=CC(c3ccccc3)C2C(=O)N1c1cccnc1 (configuration not stated)	i	-12%
Cc1cc(NC(=O)CCC(=O)N(CC(=O)NC2CCCC2)c2cccc(F)c2)no1	-7%	2%
COCCN(C(=O)CSCc1ccccc1)c1c(N)n(Cc2ccccc2)c(=O)[nH]c1=O	-18%	-7%
O=C(C1CCCCC1)N1C[C@H](O)[C@@H](n2cc(-c3ccc(F)cc3)nn2)C[C@@H]1c1ccccc1	-14%	-11%
Cc1ncc([N+](=O)[O-])n1Cc1ccc(Br)cc1	i	-5%
C=CCn1c(=NC(=O)c2ccco2)sc2cc(C(=O)OCC)ccc21	-3%	1%
Cc1cccc(C(C)(C)C)c1OCCn1ccnc1	-12%	-11%
CSc1ncc(C(=O)NCc2cccc(F)c2)c(-c2ccccc2)n1	-13%	-10%
Cc1ccc(-n2c(-c3ccncc3)n[nH]c2=S)cc1	2%	8%
CN(C)CCn1c2c(c(SCC(=O)NCc3ccccc3)nc1=O)CCCC2	-14%	3%
COc1ccc(-c2nn[nH]n2)cc1OC	2%	27%
Cc1cccc(-n2ccnc2SCC(=O)Nc2ccccc2C(F)(F)F)c1	6%	-1%
CNC(=O)C[C@@H]1C(=O)N(c2ccc(OC)cc2)CC1(C)C	i	-4%
O=c1c(-c2cc(-c3ccccc3)nc3c2COc2ccc(Cl)cc2-3)coc2ccc(F)cc12	-4%	0%
Cc1cc(NC(=O)COC(=O)C2CC(=O)N(c3cccc(C)c3C)C2)no1 (configuration not stated)	-11%	-10%
Cc1ccnc(NC(=O)C(C)N2C(=O)c3ccccc3C2=O)c1 (configuration not stated)	u	-6%
CCN(CC)S(=O)(=O)c1ccc2c(c1)N(CC(=O)Nc1ccccc1F)C(=O)C1CCCN21 (configuration not stated)	-4%	-1%
CCOc1ccc(NC(=O)C(CC(=O)O)Cc2ccc(C)cc2)cc1 (configuration not stated)	-13%	-10%
O=S(=O)(Nc1ccc(Cl)cc1)c1cccc2nsnc12	i	-12%
Cc1cccc(C)c1-n1ncc(C(=O)NCCCN2CCCCC2)c1C1CCN(C(=O)OC(C)(C)C)CC1	-19%	-15%
COc1cc(CNC(=O)c2cc(-c3cc(C)cc(F)c3)n[nH]2)cc(OC)c1	-12%	-7%
Cc1ccc(C2C(C(=O)c3sc(C)nc3C)=C(O)C(=O)N2CCN2CCOCC2)o1 (configuration not stated)	x	-2%
COC(=O)CC1(c2ccc(OC)cc2)C(=O)c2ccccc2C1=O	-16%	-4%
CCOc1ccc(-c2nnc(NC3=NCCCCC3)o2)cc1	-18%	u

Compounds listed so far that contain a COOH group (2):
SMILES	VACV mCherry inh	Vaccinia Venus
CCOC(=O)CC/C(C)=N\N=C1\SC(CC(=O)O)C(=O)N1c1ccccc1 (configuration not stated)	i	7%
CCOc1ccc(NC(=O)C(CC(=O)O)Cc2ccc(C)cc2)cc1 (configuration not stated)	-13%	-10%

(further entries)
SMILES	VACV mCherry inh	Vaccinia Venus
CCN(CC)S(=O)(=O)c1ccc2c(c1)nc(SCC(=O)NC1CC1)n2-c1ccccc1OC	x	-7%
O=C(NCC1CCCO1)c1ccc(NC(=O)c2cccc([N+](=O)[O-])c2)cc1 (configuration not stated)	i	-16%
O=C1NC[C@@H](CCCCN2C[C@H](Cc3ccccc3)N(CCC3CCCCC3)C(=O)C2=O)N(Cc2ccccc2)C1=O	-14%	-2%
O=S(=O)(c1ccccc1C(F)(F)F)N1CCN(c2nc(-c3ccccc3)nc3ccccc23)CC1	-14%	-14%
COc1cc(NS(=O)(=O)c2ccc(NC(=S)NC(=O)c3ccco3)cc2)ncn1	i	-2%
CN1CCN(C(=O)/C(=C\c2cccs2)NC(=O)c2ccccc2)CC1	i	0%
COc1ccc(-c2noc(CCC(=O)N3CCN(c4ccccc4OC)CC3)n2)cc1	-9%	-12%
N/C(Cc1ccc([N+](=O)[O-])cc1)=N\OC(=O)c1ccc2ccccc2c1	x	-9%
COc1ccc(N2CCN(C(=O)C3CCCN(c4ncnc5c4nc4n5CCCCC4)C3)CC2)cc1 (configuration not stated)	-29%	-25%
N#C/C(=C\c1ccccc1Cl)C(=O)Nc1ccccn1	-22%	-5%
CCn1ccnc1CN(C)Cc1nc(-c2cccc(Cl)c2)no1	-15%	-5%
Cc1cccc(N2CN=c3s/c(=C\c4ccncc4)c(=O)n3C2)c1	x	-3%
COc1ccc(S(=O)(=O)N2CCCC2CNC(=O)c2cccc(OC)c2)cc1 (configuration not stated)	i	-9%
CC(NC(=O)C(=O)N/N=C\c1cccc([N+](=O)[O-])c1)c1ccccc1 (configuration not stated)	-13%	2%
Cc1ccccc1Nc1c(-c2ccc(Cl)s2)nc2cccc(C)n12	-12%	-4%
CCOC(=O)CSCc1c(C#N)c2ccccc2n1C	-18%	-3%
O=C(COc1ccccc1)N1CCCCCCC1	-1%	-14%
COc1ccc(CCNC(=O)COC(=O)Cc2cccc3ccccc23)cc1	43%&-4%[activator]	-3%&-16%
CC(=O)c1c(C)[nH]c(C(=O)OC(C)C(=O)NC2CCCCC2)c1C (configuration not stated)	i	-15%
COc1cccc(C(C(=O)NCC2CCCO2)N(C(=O)Cn2nnc3ccccc32)c2ccc(NC(C)=O)cc2)c1 (configuration not stated)	-11%	1%
O=S1(=O)CCN(OCc2ccc(Cl)cc2)CC1	-1%	-4%
O=C(Cn1c(SCCOc2ccc(Cl)cc2)nc2ccccc21)N1CCCCC1	-10%	-2%
Cc1cc(-c2ccc(C)c(S(=O)(=O)N3CCN(c4ccc([N+](=O)[O-])cc4)CC3)c2)on1	i	-7%
COc1ccc(-c2csc(N(CCCN(C)C)C(=O)c3ccc(OC)c(OC)c3)n2)cc1	2%	-9%
CC(C)Cc1ccc(C(C)C(=O)Nc2ccccc2O)cc1 (configuration not stated)	u	-25%
Clc1ccc(OCCn2ccnc2)c(Br)c1	-20%	-11%
Oc1cc2c(cc1CN1CCN(c3cccc(C(F)(F)F)c3)CC1)CCC2	-17%	-7%
COc1cccc(CNC(=O)CCS(=O)(=O)c2cc3c4c(c2)CCN4C(=O)CC3)c1	-6%	-9%
CC(=O)c1ccc(-c2cccc([C@H]3[C@@H]4C=CC[C@@H](C)[C@@H]4C(=O)N3Cc3ccccc3)c2)cc1	-22%	-1%
COCCC(=O)N1CCC(n2nccc2NC(=O)c2ccccc2C)CC1	0%[7.34 µM]	-11%[7.34 µM]
Cc1ccc(S(=O)(=O)N2CCC(C(=O)N3CCC(C(=O)NCc4cccnc4)CC3)CC2)cc1	-13%	-11%
CC(=O)c1ccc(-c2cccc(-c3nc4ccccn4c3NC3CCCCC3)c2)cc1	-23%	u
COc1ccc(NC2CCCN(C(=O)c3csc(C(C)C)n3)C2)cc1OC (configuration not stated)	-12%	-2%
OCC1OC(n2cnc3c(NC4CCCC4)ncnc32)C(O)C1O (configuration not stated)	-11%	-15%
O=C1c2ccccc2C(=O)N1Cc1cc(-c2ccccc2)no1	i	-3%
Cc1ccc(NC(=O)c2oc(=O)c3ccccc3c2-c2ccccc2)c(C)c1	-19%	-11%
CCN(CC)S(=O)(=O)c1ccc2nnn(O)c2c1	-7%	-7%
COc1ccc(-n2c(=S)[nH]c3cc(C(=O)NCc4cccnc4)ccc3c2=O)c(OC)c1	-8%	-3%
Cc1c(Cl)cccc1NC(=O)NCc1c(-n2cccc2)sc2c1CCCC2	5%	-4%
CCCCN(S(=O)(=O)c1ccccc1)S(=O)(=O)c1ccccc1	-28%	-2%
Cc1ccc(S(=O)(=O)N2CCN(C(=O)C3CCCO3)CC2)cc1 (configuration not stated)	i	-16%
COc1ccc(C[C@@H]2c3cc(O)c(OC)cc3CCN2C)cc1O	-27%	-8%
CCc1cccc(C)c1NC(=S)N1CC2CC(C1)c1cccc(=O)n1C2 (configuration not stated)	-13%	-11%
COc1ccc(C(=O)NN=C(Cc2ccccc2)Cc2ccccc2)cc1OC	-1%	-19%
CCOC(=O)Cn1nc(C)c(NC(=O)COc2ccc(C)c(C)c2)c1C	-6%	0%
COc1ccc(N2CC(C(=O)OCC(=O)Nc3cccc(C)c3)CC2=O)cc1 (configuration not stated)	-14%	5%
Cc1ccc(C(=O)CCS(=O)(=O)c2ccc(Cl)cc2)cc1	-19%	-10%
CN(C)c1ccc(NC(=S)NC(=O)/C=C/c2ccc(Cl)cc2)cc1	-17%	-11%
Cc1ccc(C(=O)Nc2ccccc2[N+](=O)[O-])cc1S(=O)(=O)N1CCOCC1	i	-3%
COc1cccc(NC(=O)C2CCCN2C(=O)OCc2ccccc2)c1 (configuration not stated)	x	-14%

Sorted by SMILES length (smallest number first): part of the list above.
SMILES	VACV mCherry inh	Vaccinia Venus
CCN(CC)S(=O)(=O)c1ccc2nnn(O)c2c1	-7%	-7%
OCC1OC(n2cnc3c(NC4CCCC4)ncnc32)C(O)C1O (configuration not stated)	-11%	-15%
Cc1ccc(C(=O)CCS(=O)(=O)c2ccc(Cl)cc2)cc1	-19%	-10%
COc1cccc(NC(=O)C2CCCN2C(=O)OCc2ccccc2)c1 (configuration not stated)	x	-14%
COc1ccc(C[C@@H]2c3cc(O)c(OC)cc3CCN2C)cc1O	-27%	-8%
Cc1ccc(S(=O)(=O)N2CCN(C(=O)C3CCCO3)CC2)cc1 (configuration not stated)	i	-16%
COc1ccc(C(=O)NN=C(Cc2ccccc2)Cc2ccccc2)cc1OC	-1%	-19%
COc1ccc(NC2CCCN(C(=O)c3csc(C(C)C)n3)C2)cc1OC (configuration not stated)	-12%	-2%
COc1ccc(N2CC(C(=O)OCC(=O)Nc3cccc(C)c3)CC2=O)cc1 (configuration not stated)	-14%	5%
CC(=O)c1ccc(-c2cccc(-c3nc4ccccn4c3NC3CCCCC3)c2)cc1	-23%	u
COc1cccc(CNC(=O)CCS(=O)(=O)c2cc3c4c(c2)CCN4C(=O)CC3)c1	-6%	-9%
COc1ccc(-n2c(=S)[nH]c3cc(C(=O)NCc4cccnc4)ccc3c2=O)c(OC)c1	-8%	-3%
Cc1ccc(S(=O)(=O)N2CCC(C(=O)N3CCC(C(=O)NCc4cccnc4)CC3)CC2)cc1	-13%	-11%
CC(=O)c1ccc(-c2cccc([C@H]3[C@@H]4C=CC[C@@H](C)[C@@H]4C(=O)N3Cc3ccccc3)c2)cc1	-22%	-1%

The listing continues:
SMILES	VACV mCherry inh	Vaccinia Venus
CCOc1ccc(NC(=O)C2CC(=O)OC2c2ccccc2)cc1 (configuration not stated)	-11%	-4%
O=C(NCc1cnn(-c2ccc(F)cc2)c1)C1CCC(=O)N(C2CC2)C1 (configuration not stated)	i	-9%
Cc1ccc(NC(=O)CSc2ncccn2)cc1F	i	-6%
O=Nc1c(O)n(Cc2ccccc2)c2ccccc12	u	-22%
CC1(C)CC(=O)c2c(O)c(-c3ccccc3)c(=O)n(-c3ccccc3)c2C1	i	-8%
O=C(COC(=O)C1(c2ccc(Cl)cc2)CCCC1)NC1CCS(=O)(=O)C1 (configuration not stated)	-13%	-12%
Cc1ccc(S(=O)(=O)Nc2ccccc2F)cc1C(=O)OC(C)C(=O)N1CCOCC1 (configuration not stated)	i	-16%
CC(C)N1CCN(S(=O)(=O)c2ccccc2)CC1	i	-7%
Cc1ccc(NC(=S)NNC(=O)Cn2nc([N+](=O)[O-])cc2C)cc1	-19%	-6%
CCOc1cc(/C=C2\COc3ccccc3C2=O)ccc1OCC(=O)N(C)C	-4%	-27%
CC(NC(=O)CN(c1ccc(F)cc1)S(C)(=O)=O)c1ccccc1 (configuration not stated)	-7%	-20%
O=C(O)c1nn2c(c1Br)NC(c1ccccc1)CC2C(F)(F)F (configuration not stated)	x	3%
Cc1ccc(-n2c(=O)c3cccnc3n2CC(=O)Nc2ccccc2C(F)(F)F)cc1C	0%[7.34 µM]	-4%[7.34 µM]
Clc1cc(NC2CCCCC2)ncn1	-3%	-7%
COc1ccc2sc(N3C(=O)CC(Cc4cccc(C)c4)C3=O)nc2c1 (configuration not stated)	i	-16%
Cc1ccc(-c2cc(C(=O)n3cnc4ccccc43)c3ccccc3n2)cc1C	x	-9%
CCCCn1c(O)c(/C=C2\C=NN=C2c2ccccc2)sc1=S	-11%	-8%
Oc1ccc(N2CCN(Cc3ccc(OCCCN4CCCCC4)cc3)CC2)cc1	u	10%
COc1ccc(C(=O)Nc2sc3c(c2C#N)CCN(C(C)=O)C3)cc1	-2%	-24%
CC/C(=N/O)C(=O)c1ccc(Br)cc1	-23%	5%
COc1ccc(CCN(Cc2cc3ccc(C)cc3n3nnnc23)C(C)=O)cc1OC	0%	-14%
CCOCCCNc1nc2cc(OC)c(OC)cc2c2nc(-c3ccccc3)nn12	-21%	-8%
Cc1ccc(C(=O)/C=C/c2cn(CC(O)CN3CCCCCC3)c3ccccc23)cc1 (configuration not stated)	i	-25%
